LANA-H2A inh: blocks KSHV LANA binding to histone H2A/H2B; Q9QR71; cell-free LANA-H2A/H2B peptide, fluorescence polarization; inhibition, % (no concentration beside the values); actives 0.6% (n = 320,000); AID 2629; in the data active = inhibition mostly above about 10%, no sharp cut-off; inactive = mostly below about 6.7%;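 note: stock transfer was 7.5 nL into about 10 µL; 0% = median of vehicle wells and 100% = median of positive control wells; one replicate is shown; the record names a cut of 25% in any replicate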
UCH37 inh: blocks the human deubiquitinase UCH37 | Q9Y5K5 | purified proteasome/UCH37, Ub-AMC cleavage fluorescence | inhibition, % (no concentration beside the values) | actives 0.33% (n = 330,000) | AID 588478;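 active = mean of two replicates above 20%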;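 note: 0% = compound-free wells with enzyme and 100% = wells lacking proteasome; stock transfer was 100 nL into about 20 µL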
Target sequence (Q9Y5K5 whole entry, looked up): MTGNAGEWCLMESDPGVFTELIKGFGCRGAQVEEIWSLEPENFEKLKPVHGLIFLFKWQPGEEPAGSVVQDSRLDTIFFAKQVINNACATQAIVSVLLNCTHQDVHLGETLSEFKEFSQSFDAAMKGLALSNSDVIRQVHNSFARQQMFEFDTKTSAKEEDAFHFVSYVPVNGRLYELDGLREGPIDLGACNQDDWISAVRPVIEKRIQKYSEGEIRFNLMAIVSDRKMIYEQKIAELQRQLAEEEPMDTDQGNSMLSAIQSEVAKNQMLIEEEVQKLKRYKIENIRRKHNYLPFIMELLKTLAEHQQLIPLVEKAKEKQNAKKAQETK
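Assay system: Proteasome-bound UCH37. Buffer or medium: pH 7.4 Tris-HCl (50 mM) with ovalbumin, ATP-MgCl2, DTT. Incubation: 30 min preincubation with enzyme, 25 min cleavage at room temperature. Measured by: fluorescence, ex 355 nm, em 460 nm. Read-out basis: percent inhibition. Control set: wells without proteasome as full block, compound-free enzyme plus substrate as uninhibited.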
E coli growth: inhibitors of Escherichia coli growth | OD600, 23 h; hits give low values | OD600 absorbance (test concentration not listed) | actives 0.21% (n = 330,000) | AID 1053175;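 active = OD600 absorbance below the run mean of sample wells minus 3.6 SD, in any replicate, cut at about 0.56 in these data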;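 note: stock transfer was 300 nL into about 60 µL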
Vif A3G: HIV-1 Vif–A3G interaction blockers – biochemical, TR-FRET, GST-Vif 1-94, biotin-A3G peptide, dose response retest, primary screen (AID 1117319) | TR-FRET GST-Vif / biotin-A3G peptide binding; higher % means a stronger effect; test concentration not given here; strong numbers were not always called active | inhibition, %, or IC50 in µM where a hit was titrated | actives 0.57% (n = 260,000);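 active = above the screen mean plus three standard deviations and confirmed in dose response; inconclusive = results disagree or hit not tested in dose response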;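 note: Vif residues 1-94 fused to GST binding biotinylated APOBEC3G peptide 110-148; 0% = full assay without inhibitor and 100% = GST in place of GST-Vif; retest series ran down from 100 µM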
B2AR ag: activates human beta-2 adrenergic receptor causing internalization. P07550. actives 0.43% (n = 340,000). Am2.2-beta2AR cells, FAP receptor internalization, flow cytometry; reference of the scale not given here. response, % (test concentration not listed);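 active = response above a set limit, near 3 SD of response in nonfluorescent compounds, cut at about 42% in these data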;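 note: stock transfer was 100 nL into about 11 µL; a reference agonist was the positive control; negative values mostly stem from fluorescent compounds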
Target sequence (P07550 whole entry, looked up): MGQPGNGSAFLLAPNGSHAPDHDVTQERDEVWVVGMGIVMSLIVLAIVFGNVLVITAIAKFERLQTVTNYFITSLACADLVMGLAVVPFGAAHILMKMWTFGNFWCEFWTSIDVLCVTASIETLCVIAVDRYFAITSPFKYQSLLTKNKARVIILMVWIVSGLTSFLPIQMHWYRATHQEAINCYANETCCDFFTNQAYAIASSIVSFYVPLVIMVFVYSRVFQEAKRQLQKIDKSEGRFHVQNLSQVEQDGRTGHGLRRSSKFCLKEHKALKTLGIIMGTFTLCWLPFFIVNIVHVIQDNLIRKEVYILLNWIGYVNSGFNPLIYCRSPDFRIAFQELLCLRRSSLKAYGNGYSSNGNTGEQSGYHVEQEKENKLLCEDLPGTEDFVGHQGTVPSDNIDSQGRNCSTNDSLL
HNF4A DNA FP: change in binding of human HNF4 alpha to DNA; AID 1224865; P41235; activity change, % at 10 µM; actives 0.3% (n = 360,000); HNF4a-FITC DNA binding, fluorescence polarization, 1 h; in the data active = activity change above about 30%, passing the limit was not always enough;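 note: controls were the assay level and a saturating level of protein; the project sought stronger binding though the title names inhibitors; some compounds called inactive have numbers as strong as hits; positive values seem to mean higher polarization but the record does not say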
A1 inh: inhibitors of the anti-apoptotic protein A1, read as caspase activation | MEF A1-2A-BIM cells, Caspase-Glo 3/7 luminescence, 3 h; percent of clofoctol response, vehicle zero | actives 0.066% (n = 330,000) | caspase activation, % (concentration not given with the values);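 active = over half of replicate activation scores above 10%, or exactly half above 10 with the replicate mean above 10; inconclusive = replicate mean below 10 yet half the replicates above 10; inactive = over half of replicates below 10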;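 note: wells of about 30 µL received 50 nL stock; many hits fall short of the cut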
Active calls of the source: *; ? = inconclusive; . = no result given; & = joins results of further samples.

SMILES	LANA-H2A inh	UCH37 inh	E coli growth	Vif A3G	B2AR ag	HNF4A DNA FP	A1 inh
CCN(CC)CC(=O)Nc1c2c(nc3ccccc13)N(C)CC2	-0.9	-203.4	0.659	.	26.1	-1.3	0.1
CCN(C(=O)CN1C(=O)NC(c2ccccc2)(c2ccc(C)c(C)c2)C1=O)C1CCCCC1 (stereo not drawn)	-473.3	0.2	0.725	-7.2%	5.5	-1.6	0.2
CO/N=C\CC(=O)Nc1ccc(F)cc1	1.3	.	.	4.2%	3.7	7.4	.
CCCCN(C(=O)c1ccc2ccccc2c1)c1c(N)n(CCCC)c(=O)[nH]c1=O	0.4	-0.4	0.724	4.0%	-0.9	-2.6	-0.2
Cc1cccc(OCC(=O)N/N=C\c2cn(C)c3ccccc23)c1	1.8	.	.	6.1%	-7.1	0.4	-0.9
COc1ccc(-c2csc(NC(=O)CC(NC(C)=O)c3ccccc3)n2)cc1OC (stereo not drawn)	1.2	-0.3	0.682	.	10.4	5.3	1.7
Cc1ccccc1C1=NC(C(F)(F)F)(C(F)(F)F)c2c(n(-c3ccc(F)cc3)c(=O)[nH]c2=O)N1	3.3	-372.4	0.683	-5.6%	1.8	-5.3	0.0
O=C(NCCc1c[nH]c2ccccc12)/C(=C\c1cccs1)NC(=O)c1ccccc1	-4.7	3.3	0.693	-1.2%	-5.5	3.6	0.0
CCOC(=O)C1C(=O)NC(c2ccccc2)=NC1c1ccc(Br)cc1 (stereo not drawn)	-0.6	1.7	0.732	-10.0%	16.5	-0.3	0.1
COCCNC(=O)Cn1cc2c(n1)CCC(C)C2 (stereo not drawn)	-3.5	0.9	0.744	1.2%	-0.5	-0.1	-0.7
Cc1cc(F)ccc1NC(=O)CCc1c(C)nn(-c2ccc(N3CCCCC3)nn2)c1C	-0.5	2.4	0.693	.	8.4	2.6	-0.1
Cc1cccnc1CCNC(=O)c1ccc(OC2CCN(Cc3ccccn3)CC2)cc1	-1.3	5.1	0.701	.	-4.4	4.7	-0.3
O=C(c1c(F)cccc1F)N1CCCC1	-0.1	2.5	0.65	?	-0.1	-0.8	1.0
CCN(CC)S(=O)(=O)c1cc(C(=O)c2nccn2C)ccc1Cl	0.0	2.4	0.675	25.8%	-3.5	-3.8	0.2
CCC(C)Nc1nc2c(c(=O)n(C)c(=O)n2C)n1Cc1cccc(C)c1 (stereo not drawn)	-2.9	2.7	0.7	21.1%	1.0	1.2	0.5
Nc1ccc2c(c1)Nc1ccccc1CC2	2.7	-0.5	0.642	.	-36.4	0.1	0.6
Cc1cccc(OCC(=O)Nc2ccc(N3CCN(C(=O)c4ccccc4)CC3)cc2)c1	1.9	3.6	0.734	5.5%	1.8	2.0	0.2
Cc1ccc2c(c1)N(C(=O)CCC(=O)NCc1ccccn1)CC(C)O2 (stereo not drawn)	-0.9	3.1	0.804	.	4.4	-0.4	0.2
CCOC(=O)C1(CCOC)CCN(C(=O)Cc2ccsc2)CC1	1.5	2.4	0.72	.	-1.7	-0.8	0.4
O=C(c1cc2ccccc2o1)N1CCN(CCOc2ccccc2)CC1	.	2.3	0.66	-2.1%	4.5	6.6	.
COC(=O)c1ccc(S(=O)(=O)NCc2ccc(S(N)(=O)=O)cc2)o1	1.1	-1.3	0.662	-3.1%	-1.2	3.3	-0.1
COCc1cc(C)nc(SCC[N+](C)(C)CC(=O)Nc2cccc(C(F)(F)F)c2)c1C#N	1.4	8.5	0.637	9.0%	-11.8	0.8	0.7
O=C(OCn1ncc(Br)c(Br)c1=O)c1c(F)cccc1F	-0.1	.	.	-29.1%	.	.	-0.3
Cc1ccc(-c2noc(Cn3nc(C(=O)O)c4ccccc4c3=O)n2)cc1	1.7	3.2	0.681	.	3.2	0.0	0.4
N#Cc1c(-c2ccc(Cl)cc2)ccnc1N1CCOCC1	-0.1	-24.2	0.652	-9.6%	-5.5	0.7	-0.5
O=C(COc1ccc(NC(=O)c2cccs2)cc1)c1ccc(F)cc1	0.0	0.7	0.628	.	4.6	-1.9	-0.4
COc1ccc(NC(=O)C2CCCO2)c(OC)c1 (stereo not drawn)	1.6	2.6	0.706	-1.8%	6.7	1.9	-1.3
CC(=O)Nc1ccc(C(=O)OCC(=O)Nc2ccc(N3CCOCC3)cc2)cc1	8.9	2.7	0.677	.	-5.4	-2.5	0.3
Fc1ccccc1Cc1noc(CN(Cc2ccccn2)CC2CCCO2)n1 (stereo not drawn)	5.3	3.6	0.728	-4.2%	3.1	-5.9	0.1
CC(Oc1cc2oc(=O)c3c(c2cc1Cl)CCC3)C(=O)N1C[C@H]2C[C@@H](C1)c1cccc(=O)n1C2 (stereo partly drawn)	-2.5	-198.3	0.795	.	-14.8	-2.1	0.6
COC(=O)c1ccc(Cn2nnc3ccccc32)cc1	6.5	2.9	0.674	26.1%	-0.9	0.2	0.0
CCc1cccc(C)c1NC(=O)CO/N=C(\N)CC(=O)NC1CCCCC1	0.0	-2.6	0.656	0.0%	-6.9	3.4	-0.3
CN1C(=O)C(CC(N)=O)N(NC(=O)c2ccc(Cl)cc2)C1=S (stereo not drawn)	-1.4	1.1	0.68	0.7%	-6.5	-1.5	-0.2
COc1cc(/C=C/C(=O)OCC(=O)Nc2cc(S(=O)(=O)N3CCCCC3)ccc2C)ccc1O	-3.5	-8.7	0.654	-1.5%	11.3	3.0	-0.5
COc1cc(NC(=O)c2ccc(Cl)cc2Cl)ccc1-c1cc2ccccc2oc1=O	8.6	-78.2	0.682	-5.0%	-4.1	4.1	4.1
COc1ccc(CCNC(=O)CN(c2cc([N+](=O)[O-])ccc2OC)S(C)(=O)=O)cc1	0.9	1.5	0.708	5.8%	-4.1	2.8	0.5
Cc1nc(CN2CCN(C(=O)c3ccc(C(C)(C)C)cc3)CC2)cs1	4.5	2.5	0.752	0.6%	5.2	1.7	0.6
Clc1ccc(-c2nc3ccccn3c2CN2CCSCC2)cc1	-2.8	-12.5	0.601	-3.0%	-14.3	2.1	-0.2
C=CCNc1nc(-c2ccc(OC)cc2OC)cs1	2.2	1.7	0.696	-9.0%	-2.9	5.1	-4.3
COc1cc(CNc2ccccc2SC)cc(OC)c1OC	0.1	0.6	0.651	13.9%	-3.2	-0.3	1.2
CCN1CCN(C(c2cccs2)C(C)NC(=O)c2c(F)cccc2F)CC1 (stereo not drawn)	2.4	1.5	0.692	-0.5%	11.0	-1.7	-0.2
CCOc1ccc(Cn2c(=O)oc3ccccc32)cc1	-0.7	6.3	0.687	.	-4.9	-1.4	0.4
C/C(=C\c1ccccc1)CN1CCN(c2ccccc2)CC1	-1.2	3.7	0.614	15.9%	-7.1	-6.3	-0.9
CCN(c1ccccc1)S(=O)(=O)c1ccc(C(=O)N(C)Cc2cccs2)cc1	-3.4	3.1	0.675	.	-6.2	0.4	-1.0
c1ccn2cc(-c3ccc4c(c3)OCO4)cc2c1	0.5	-24.4	0.744	-6.0%	12.1	4.2	0.1
COc1ccc(S(=O)(=O)Nc2ncccc2C)c2ccccc12	-0.5	1.5	0.72	.	-2.1	6.3	-0.3
O=C(CCN1C(=O)C2C3C=CC(C3)C2C1=O)NCCc1ccccc1 (stereo not drawn)	5.5	3.5	0.712	1.9%	-3.8	1.6	1.4
OCCC1CCCCN1CC(O)COCc1ccc(Cl)cc1 (stereo not drawn)	-4.1	0.6	0.707	.	7.5	-0.9	-0.1
CCOc1cc(C(=O)OC(C)C(=O)Nc2ncc(Cl)cc2Cl)ccc1OCC(=O)N1CCOCC1 (stereo not drawn)	-4.4	4.9	0.669	.	-6.3	-3.3	0.1
C/C(=N/NC(=O)Cc1cccc2ccccc12)c1cccs1	-3.1	.	.	1.1%	0.7	2.2	-0.5

Four entries from above, with each value named:
> CCN(c1ccccc1)S(=O)(=O)c1ccc(C(=O)N(C)Cc2cccs2)cc1
- LANA-H2A inh: -3.4
- UCH37 inh: 3.1
- E coli growth: 0.675
- Vif A3G: .
- B2AR ag: -6.2
- HNF4A DNA FP: 0.4
- A1 inh: -1.0

> c1ccn2cc(-c3ccc4c(c3)OCO4)cc2c1
- LANA-H2A inh: 0.5
- UCH37 inh: -24.4
- E coli growth: 0.744
- Vif A3G: -6.0%
- B2AR ag: 12.1
- HNF4A DNA FP: 4.2
- A1 inh: 0.1

> COc1ccc(S(=O)(=O)Nc2ncccc2C)c2ccccc12
- LANA-H2A inh: -0.5
- UCH37 inh: 1.5
- E coli growth: 0.72
- Vif A3G: .
- B2AR ag: -2.1
- HNF4A DNA FP: 6.3
- A1 inh: -0.3

> O=C(CCN1C(=O)C2C3C=CC(C3)C2C1=O)NCCc1ccccc1 (stereo not drawn)
- LANA-H2A inh: 5.5
- UCH37 inh: 3.5
- E coli growth: 0.712
- Vif A3G: 1.9%
- B2AR ag: -3.8
- HNF4A DNA FP: 1.6
- A1 inh: 1.4

Remaining list, next part:
SMILES	LANA-H2A inh	UCH37 inh	E coli growth	Vif A3G	B2AR ag	HNF4A DNA FP	A1 inh
COC(=O)c1c(SCC(=O)NC2CCCCC2)[nH]c2ccccc2c1=O	-0.2	0.6	0.686	.	10.0	16.1	0.1
c1ccc(-c2ccccc2OCCN2CCOCC2)cc1	-0.4	3.6	0.67	.	4.8	-0.7	0.3
O=C(OCC(=O)N(Cc1ccccc1)Cc1ccccc1)c1cccc(O)c1	-174.1	-0.1	0.657	8.0%	-4.2	1.0	0.5
Cc1cc(SCC(=O)NCCN2C(=O)CSC2=O)nc2ccccc12	6.2	3.7	0.734	15.0%	-8.1	4.2	0.9
CCOC(=O)CN(C)Cc1cn(C)nc1-c1ccc(Oc2ccccc2)cc1	-2.9	1.6	0.683	3.6%	2.1	3.8	-0.5
O=C(NC1CCN(Cc2ccccc2)CC1)c1cncc(Br)c1	3.5	-2.0	0.709	.	0.6	0.8	0.3
COc1ccc(-c2nnc(NC(=O)CS(=O)(=O)c3ccc(Cl)cc3)o2)c(OC)c1	-1.9	4.2	0.682	0.5%	9.0	0.2	0.6
CCN(CC)CCN1C(=O)C(=O)/C(=C(/O)c2ccc(S(=O)(=O)N3CCOCC3)cc2)C1c1ccc(C(C)C)cc1 (stereo not drawn)	1.6	7.3	0.701	.	-3.2	1.3	0.8
O=C(CSC1=NCCS1)N1CCN(c2ccccc2)CC1	2.1	6.5	0.791	5.1%&-6.3%	-3.4	-2.1	0.3
CC(=O)N1CC(C)Sc2ccc(S(=O)(=O)NC3CCCCC3)cc21 (stereo not drawn)	0.4	-1.5	0.688	3.4%	-2.6	1.6	-0.7
CCNC(=O)Cn1c(=O)c(=O)n(Cc2ccccc2)c2ccc(Cl)cc21	1.6	-10.9	0.718	6.7%	-0.1	2.6	0.1
COCCn1c(SCC(=O)Nc2ccc3c(c2)OCCO3)nnc1-c1c[nH]c2ccccc12	5.2	1.5	0.653	3.7%	-2.2	2.0	1.2
Oc1ccccc1Nc1nc(NCc2ccco2)c2ccccc2n1	3.0	.	.	20.6%	51.3*	1.9	-0.2
CCOc1cc(CN2CCN(S(=O)(=O)Cc3ccccc3)CC2)ccc1OC	3.8	1.7	0.68	.	1.9	-1.4	-0.2
COc1cc(CNc2ccc3[nH]c(=O)[nH]c3c2)ccc1OCc1ccccc1F	-3.0	-1.9	0.69	.	1.8	7.3	-3.2
Cc1nc(Nc2ccccc2)sc1C	1.7	0.8	0.613	-1.3%	-0.3	3.3	0.4
COc1ccc(N2CCN(C(=O)CN(c3ccc(Br)cc3)S(C)(=O)=O)CC2)cc1	-1.3	2.7	0.7	?	-9.4	-3.0	-0.5
CC(=O)c1cccc(N(C(=O)CS(=O)CC(=O)Nc2ccc(F)cc2)C(C(=O)NC2CCCCC2)c2ccc(C)o2)c1 (stereo not drawn)	3.7	3.2	0.69	2.7%	-0.2	2.2	0.5
O=C(CSC1=NCCN1)C1COc2ccccc2O1 (stereo not drawn)	1.8	0.2	0.702	0.4%	-2.1	-0.6	0.3
